# Source: PubChem (National Center for Advancing Translational Sciences (NCATS))
# D2 agonist: human D2 receptor agonism in beta-arrestin assay; 360,000 compounds, 0.084% hits; activation, % (test concentration not listed); P14416; DiscoveRx PathHunter D2 beta-arrestin, luminescence, 90 min; 100% = 57 uM dopamine signal; in the data active = activation above about 40%; inconclusive = about 15% to 40%; inactive = below about 15%; also: compound concentration not given in the record; the text of the record calls up to 30% inactive
#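 Agonist mode: compounds alone added to overnight-plated D2 PathHunter cells for 90 min at 37 C, with 57 uM final dopamine (EC100) defining full response. Beta-arrestin recruitment detected by chemiluminescent reagent, read after 1 h at ambient temperature.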
# Six1-Eya2 inh: blocks human Six1 binding to Eya2; Q15475+O00167; AlphaScreen GST-Six1/His-Eya2 binding, biochemical; hits give low values; control for the full effect not named in the record; activity change, % (concentration not given with the values); 360,000 compounds, 0.56% hits; in the data active = activity change below about -65%; inconclusive = about -30% to -65%; inactive = above about -30%; also: % is scaled to controls: 0 for no effect and ±100 for the full control effect
# Target sequence (O00167 whole entry, looked up): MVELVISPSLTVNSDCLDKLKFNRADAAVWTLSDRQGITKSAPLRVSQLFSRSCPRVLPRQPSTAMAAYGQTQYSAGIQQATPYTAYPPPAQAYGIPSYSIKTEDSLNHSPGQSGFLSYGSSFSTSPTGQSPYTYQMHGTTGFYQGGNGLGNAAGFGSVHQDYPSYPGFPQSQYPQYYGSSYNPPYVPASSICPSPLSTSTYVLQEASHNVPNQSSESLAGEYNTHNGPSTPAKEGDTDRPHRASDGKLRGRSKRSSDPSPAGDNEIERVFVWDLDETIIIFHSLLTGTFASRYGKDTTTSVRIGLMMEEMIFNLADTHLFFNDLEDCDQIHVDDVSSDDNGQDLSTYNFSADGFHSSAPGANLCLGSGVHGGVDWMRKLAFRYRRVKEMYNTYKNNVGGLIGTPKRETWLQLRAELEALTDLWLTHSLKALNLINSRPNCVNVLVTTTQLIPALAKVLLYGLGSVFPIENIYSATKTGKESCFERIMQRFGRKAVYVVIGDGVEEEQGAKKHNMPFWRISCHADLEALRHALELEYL
# Target sequence (Q15475 whole entry, looked up): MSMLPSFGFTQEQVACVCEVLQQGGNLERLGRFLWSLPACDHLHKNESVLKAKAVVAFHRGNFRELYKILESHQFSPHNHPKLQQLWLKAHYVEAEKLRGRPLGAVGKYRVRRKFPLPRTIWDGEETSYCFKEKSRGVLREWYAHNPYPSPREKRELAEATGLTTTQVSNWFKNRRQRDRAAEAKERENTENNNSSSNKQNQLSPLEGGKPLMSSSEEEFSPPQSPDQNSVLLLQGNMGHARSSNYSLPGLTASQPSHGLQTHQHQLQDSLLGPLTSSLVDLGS
#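 GST-Six1 + His-Eya2 (5X stock: 250/500 nM); Tris pH 8.0, 300 mM NaCl, 0.05% BSA, 0.02% Tween 20; GSH donor/Ni acceptor beads; 1 h 37 °C dark; AlphaScreen readout.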
# CtBP-E1A blk: CtBP/E1A binding inhibition; activity change, % (test concentration not listed); AID 651724; AlphaScreen GST-E1A/His-CtBP binding, 1536-well; hits give low values; control for the full effect not named in the record; 340,000 compounds, 0.49% hits; in the data active means activity change below about -65%; inconclusive means about -30% to -65%; inactive means above about -30%; also: % is scaled to controls: 0 for no effect and ±100 for the full control effect
#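 Steps: dispense buffer (Tris pH 8.0, NaCl 300 mM, TCEP 1 mM, BSA, Tween 20); add 5X protein mix (GST-E1A, His-CtBP, 125 nM each); pin 23 nL compound; 2 h at 37 °C, dark; add 5X beads (50 ug/mL); 1 h; read.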
# gsp antag: antagonists of gsp mutant (McCune-Albright syndrome); gsp-mutant cells, cAMP HTRF, 30 min; control for the full effect not named in the record; Potency, µM (titrated, usually from 76.9 µM), without a hit: at the top dose activity change, negative = inhibition, hits mostly inhibitors; 340,000 compounds, 0.4% hits; AID 624288; active = falling curve of any shape with a large fitted effect; inconclusive = falling curve, mostly with a smaller effect; inactive = flat or rising curve; cell line not stated here;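 also: intracellular cAMP measured with PDE inhibitor Ro 20-1724 present during compound exposure; potency is read from the fitted curve at half-maximal effect; % is scaled to controls: 0 for no effect and ±100 for the full control effect; nearly all actives have a fitted effect of over 65% in size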
#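 Measurement of cellular cAMP by homogeneous time-resolved fluorescence following a 30 min compound exposure at 37C. The PDE inhibitor […] was present throughout; the assay buffer was DPBS with 0.05% BSA and 0.005% Tween 20.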
# gsp agonist: gsp mutant agonism; gsp mutant cells, cAMP HTRF, 30 min; control for the full effect not named in the record; 340,000 compounds, 0.13% hits; Potency, µM (top dose mostly 76.9 µM), inactives show at the top dose activation (cAMP increase), most hits filed as activators; AID 624287; active = well fitted activation curve with a large enough effect; inconclusive = small, poorly fitted or top-dose-only effect, or another doubt; inactive = no such curve, though single readings can be large or run the other way; cell line not stated here;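 also: phosphodiesterase inhibitor Ro 20-1724 added with compounds to block cAMP breakdown; potency is read from the fitted curve at half-maximal effect; nearly all actives have a fitted effect of over 60% in size; about a fifth of the inactives were tested at one dose only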
#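 Cells in DMEM/10% FBS with G418 were pretreated with compounds in DMSO plus […] (300 uM stock) for 30 min at 37C. cAMP was measured by HTRF (cAMP-d2 plus anti-cAMP antibody-K) after 30 min at room temperature.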
# D2 potentiator: positive allosteric modulators of human D2 dopamine receptor. P14416. DiscoveRx D2 beta-arrestin cells, luminescence, 90 min; 100% = 57 uM dopamine signal. potentiation, % (no concentration beside the values). 360,000 compounds, 0.23% hits. AID 624464; active = potentiation of 50% or more; inconclusive = 30% to 50%; inactive = 30% or less;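 also: compound concentration not given in the record; tested on top of an EC20 dose of dopamine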
#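 D2 cells co-treated with compound plus 50 nM dopamine (EC20) for 90 min at 37 deg C to detect potentiation. Beta-arrestin recruitment was read as enzyme-fragment luminescence after 1 h at ambient temperature. Full response was set by 57 uM dopamine.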
# The depositor's hits bear a star; ? = inconclusive; · = not tested or not shown; [ ] = remark or other dose.
SMILES,D2 agonist,Six1-Eya2 inh,CtBP-E1A blk,gsp antag,gsp agonist,D2 potentiator
COc1ccc(CN(CC(=O)NCC2CCCO2)C(=O)CCC(=O)Nc2cc(C)ccn2)cc1 (stereo not drawn),-1.3,0.3,2.2,-11.3%,?,4.1
Cc1ccc2c(C)c(C)c(=O)n(C)c2c1,2.0,-0.9,3.1,2.0%,-0.4%,-9.3
CC(C)c1csc(CN2CCCC(CNC(=O)c3cccc4ccccc34)C2)n1 (stereo not drawn),-3.2,-11.5,-17.2,-7.2%,?,-32.5
Cc1ccc(NS(=O)(=O)c2cc(C(N)=O)ccc2C)cc1,-2.3,-1.5,3.6,1.9%,-36.2%,-0.3
CCCCN1C(=O)CC(C(=O)OCC)=C1C,1.4,5.9,·,-4.4%,4.5%,6.3
O=C(NNC(=O)c1cccs1)c1cccnc1,2.4,3.5,4.8,5.6%,2.2%,-2.2
O=C(Nc1ccc(N2CCN(C(=O)c3ccco3)CC2)cc1)c1cccc(F)c1,-0.7,-3.1,-1.7,-19.7%,10.3%,-1.2
CCn1c2ccccc2c2cc(CN3CCN(Cc4cc(OC)ccc4O)CC3)ccc21,-1.6,?,?,8.3%,-27.9%,-13.3
CCCCNC(=O)Nc1ccccc1Br,-4.2,0.4,3.5,-10.4%,-13.0%,-9.0
CS(=O)(=O)Nc1cccc(NC(=O)c2ccc(-n3ccnc3)c3ccoc23)c1,-7.6,?,?,·,·,-17.6
CSCCC(NS(=O)(=O)c1ccc(C)cc1)C(=O)NC1CCCCC1 (stereo not drawn),0.1,0.7,-0.1,4.2%,-2.3%,-6.4
O=C(COc1ccc(Br)cc1)Nc1ccc(S(=O)(=O)Nc2ccccn2)cc1,-2.3,-4.0,-5.8,-5.6%,-8.6%,-14.1
O=C(Cn1nc(-c2ccccc2)c2ccccc2c1=O)Nc1ccc2c(c1)nc1n2CCOC1,-0.7,2.9,-11.1,-6.0%,20.6%,-13.4
c1ccc(-c2cn3ccccc3n2)cc1,-2.0,-13.2,-2.7,2.2%,16.9%,-8.2
Cc1c(OCC(=O)NCCCn2ccnc2)ccc2c3c(c(=O)oc12)CCCC3,-3.7,-6.2,-7.0,-0.5%,-3.3%,5.0
COc1ccc2[nH]cc(CCNC(=O)CCC3CCCCC3)c2c1,0.8,4.8,·,-13.7%,-26.1%,-12.9
Cc1cccn2c(=O)c(C=NCc3ccccc3)c(NCCO)nc12,-1.4,-9.0,-25.3,20.3%,11.6%,9.4
COc1ccc(CCNC(=O)c2ccc(-c3ccc([N+](=O)[O-])cc3Cl)o2)cc1OC,5.4,-28.7,-4.0,31.6µM*,-35.9%[inhibitor],7.3
C1=C(CCNc2nnnn2-c2ccccc2)CCCC1,0.8,3.9,-1.2,-9.0%,6.9%,-21.8
COc1ccccc1NC(=O)C1(C)Cc2ccccc2C(=O)O1 (stereo not drawn),0.2,1.8,-15.0,3.9%,-0.5%,3.7
CC1CCCC(NC(=O)COC(=O)Cc2ccsc2)C1C (stereo not drawn),-8.5,3.3,12.2,-7.2%,-35.1%[inhibitor],-1.8
CCOC(=O)N1CCN(C(=O)c2ccc(CS(=O)(=O)c3ccc(OC)cc3)o2)CC1,2.5,4.9,-3.1,-11.1%,-2.7%,-6.3
O=[N+]([O-])c1cccc(Cl)c1NCCNS(=O)(=O)c1ccc(Cl)cc1,-7.0,-23.6,-18.6,13.4%,4.3%[15.4 µM],-6.7
CC12CCC(/C(=C/NNc3ccc([N+](=O)[O-])cc3[N+](=O)[O-])C1=O)C2(C)C (stereo not drawn),14.8,-14.3,3.5,·,-1.7%,-14.9
CCc1ccc(N(CC(=O)Nc2ccccc2C(=O)N2CCOCC2)S(C)(=O)=O)cc1,-0.9,6.0,-9.7,5.3%,0.2%,-4.2

# Ordered by length of the SMILES (descending): 11 of the compounds above
SMILES,D2 agonist,Six1-Eya2 inh,CtBP-E1A blk,gsp antag,gsp agonist,D2 potentiator
COc1ccc(CN(CC(=O)NCC2CCCO2)C(=O)CCC(=O)Nc2cc(C)ccn2)cc1 (stereo not drawn),-1.3,0.3,2.2,-11.3%,?,4.1
CS(=O)(=O)Nc1cccc(NC(=O)c2ccc(-n3ccnc3)c3ccoc23)c1,-7.6,?,?,·,·,-17.6
O=C(Nc1ccc(N2CCN(C(=O)c3ccco3)CC2)cc1)c1cccc(F)c1,-0.7,-3.1,-1.7,-19.7%,10.3%,-1.2
O=C(COc1ccc(Br)cc1)Nc1ccc(S(=O)(=O)Nc2ccccn2)cc1,-2.3,-4.0,-5.8,-5.6%,-8.6%,-14.1
CSCCC(NS(=O)(=O)c1ccc(C)cc1)C(=O)NC1CCCCC1 (stereo not drawn),0.1,0.7,-0.1,4.2%,-2.3%,-6.4
Cc1cccn2c(=O)c(C=NCc3ccccc3)c(NCCO)nc12,-1.4,-9.0,-25.3,20.3%,11.6%,9.4
Cc1ccc(NS(=O)(=O)c2cc(C(N)=O)ccc2C)cc1,-2.3,-1.5,3.6,1.9%,-36.2%,-0.3
Cc1ccc2c(C)c(C)c(=O)n(C)c2c1,2.0,-0.9,3.1,2.0%,-0.4%,-9.3
O=C(NNC(=O)c1cccs1)c1cccnc1,2.4,3.5,4.8,5.6%,2.2%,-2.2
c1ccc(-c2cn3ccccc3n2)cc1,-2.0,-13.2,-2.7,2.2%,16.9%,-8.2
CCCCNC(=O)Nc1ccccc1Br,-4.2,0.4,3.5,-10.4%,-13.0%,-9.0

# 3 of the entries above in order of the gsp antag value, highest first:
SMILES,D2 agonist,Six1-Eya2 inh,CtBP-E1A blk,gsp antag,gsp agonist,D2 potentiator
CSCCC(NS(=O)(=O)c1ccc(C)cc1)C(=O)NC1CCCCC1 (stereo not drawn),0.1,0.7,-0.1,4.2%,-2.3%,-6.4
COc1ccccc1NC(=O)C1(C)Cc2ccccc2C(=O)O1 (stereo not drawn),0.2,1.8,-15.0,3.9%,-0.5%,3.7
COc1ccc(CN(CC(=O)NCC2CCCO2)C(=O)CCC(=O)Nc2cc(C)ccn2)cc1 (stereo not drawn),-1.3,0.3,2.2,-11.3%,?,4.1

# Next entries follow:
SMILES,D2 agonist,Six1-Eya2 inh,CtBP-E1A blk,gsp antag,gsp agonist,D2 potentiator
CC1CCCCC1NC1=NCCS1 (stereo not drawn),-2.6,3.8,-1.3,13.5%,17.5%,-12.9
O=c1cc(N2CCCCC2)c(-c2ccccc2)nn1Cc1ccccc1Cl,0.8,1.7,-4.0,-10.7%,-6.0%,1.1
Cc1ccc(Cl)cc1N1C(=O)CC(Sc2ccccc2N)C1=O (stereo not drawn),-2.3,-9.1,-4.8,·,?,-4.1
CNC(=S)N1CCc2cc(OC)c(OC)cc2C1COc1ccc(F)cc1 (stereo not drawn),-1.9,-4.0,-4.4,-27.9%,-7.2%,-7.3
CCc1nnc(NC(=O)c2cc(C)oc2C)s1,0.5,-1.9,7.6,1.5%,-20.4%,2.9
COc1cc(COc2ccc3c(C)c(CC(=O)O)c(=O)oc3c2C)cc(OC)c1OC,3.4,?,?,-16.0%,6.9%,3.9
CCN(CC)C(=O)CSc1nc2ccccc2c(=O)n1-c1ccccc1OC,3.8,14.2,-6.2,-7.1%,-25.4%,-4.0
CC(C)CN1CCC(=O)N(CCSc2ccccc2)CC1,-4.5,12.7,-24.0,-3.8%,6.9%,-15.8
CCNC(=O)COC(=O)c1cccc(Br)c1,0.6,5.2,5.0,2.8%,13.9%[15.4 µM],-0.7
COc1ccc(C=CC(=O)c2ccc(OC)c(OC)c2)cc1O,-0.7,9.9,-23.2,·,?,-5.2
CCCCC(=O)Nc1sc2c(c1C(N)=O)CCC2,-2.1,-10.4,-10.2,10.2%,2.7%,-17.1
COc1ccc(OC)c(NC(=O)CSc2nnc(CNc3ccc(F)cc3)o2)c1,-1.9,0.0,-1.2,-0.5%,-0.4%,-34.5
O=C(NCCN1CCOCC1)c1cccc(Cl)c1,-3.1,3.2,11.5,2.6%,-10.5%,-9.3
Cc1cc(COc2ccccc2OCc2cc(C)no2)on1,-3.5,-0.9,-6.8,0.0%,2.4%,-22.6
COC(=O)c1ccc(CNC(=O)c2ccc3c(c2)NC(=O)CS3)cc1,-4.1,2.9,0.7,-4.0%,-56.3%[inhibitor],4.1
Cc1cc(NC(=O)CSc2nc3c(C)ccc(C)c3cc2C#N)no1,-2.3,-1.8,11.0,-4.0%,19.0%[15.4 µM],6.6
COc1ccc(S(=O)(=O)NCC2CCCO2)cc1NC(=O)c1ccccc1 (stereo not drawn),-6.3,-6.8,10.4,3.3%,2.0%,-3.5
C/C=C/C1=CC(=O)C[C@H](c2ccc(OC)c(OC)c2)C1,-0.7,1.6,5.2,-8.3%,·,-4.4
Cc1nc(N2CCN(S(=O)(=O)c3cccs3)CC2)c2c(-c3ccccc3)c(C)sc2n1,-3.4,-2.8,5.1,·,8.6%,-6.3
CCOc1ccc(Nc2nc3c(C)cccc3cc2C#N)cc1,6.2,17.6,-1.8,-0.7%,8.7%[15.4 µM],-0.1
O=C(Nc1ccccc1N1CCN(c2ccc(F)cc2)CC1)C1CCCCC1,-3.2,5.0,0.7,-12.0%,11.4%,-7.1
O=C1/C(=C/c2ccccc2O)SC(=S)N1Cc1cccnc1,0.4,-12.4,-6.1,6.5%,-22.9%,-2.4
O=C(Nc1ncc(Cc2cccc(C(F)(F)F)c2)s1)c1ccc(-c2cccc([N+](=O)[O-])c2)o1,-3.6,-8.4,0.4,17.8%,9.3%,5.3
OCC1(CO)COC(/C=C/c2ccccc2)=N1,8.4,11.2,·,9.6%,-2.4%,-2.4
CCn1cc(C(=O)NCCO)c(=O)c2cc(F)c(N3CCN(C)CC3)cc21,0.1,-2.2,6.3,2.3%,8.6%,-5.5
SMILES,D2 agonist,Six1-Eya2 inh,CtBP-E1A blk,gsp antag,gsp agonist,D2 potentiator
CCOCCCNS(=O)(=O)c1cc(Br)cc2c1N(C(=O)C1CC1)CC2,-3.0,-1.4,-0.7,0.1%,-13.9%,-9.5
COCCNC(=O)COc1ccccc1C,-2.9,2.3,9.2,5.4%,18.2%,-5.1
Cc1cccc(/C(N)=N/OC(=O)c2ccco2)c1,12.6,8.3,-5.3,3.7%,-2.7%,56.1*
O=C(Cc1cccc(F)c1F)NC1CCCN(Cc2ccc(Cl)cc2)C1 (stereo not drawn),1.8,5.7,0.0,1.7%,-3.7%,-9.4
Nc1nc(=S)ss1,-18.5,4.4,-3.4,-14.3%,-41.2%[inhibitor],-23.0
O=C(C[C@H]1C[C@H](C(=O)N2CCOCC2)[C@@]2(CCC3CCCC3)c3[nH]c4cc(-c5ccco5)ccc4c3CCN2C1=O)NCCCn1ccnc1,-2.8,-18.0,-24.5,-2.2%,·,-11.6
